Screens: PubChem BioAssay, several laboratories
TLR4-MyD88 BLA: TLR4-MyD88 interaction inhibition in cells; O00206+Q99836; HeLa CL3-4 TLR4/MyD88 BLA complementation, FRET ratio; inhibition, % at 8.4 µM; 200,000 tested, 0.18% active; in the data active = inhibition above about 25%;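 note: 0% = vehicle and 100% = reference inhibitor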
G6PDH CS: L. mesenteroides G6PDH inhibition counter-screen; Purified L. mesenteroides G6PDH, diaphorase/resazurin coupled fluorescence, 45 min; inhibition, % at 5 µM; 200,000 tested, 0.12% active; AID 1020; in the data active = inhibition above about 50%
Diaph act CS: counter-screen for diaphorase-based assays: diaphorase activators and chemical reducers; Diaphorase/resazurin coupled assay, resorufin fluorescence, 16 min; active compounds read high; 1 = vehicle wells, 0 = NADH-free wells; activation factor at 20 µM; 190,000 tested, 0.005% active; AID 1229;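 active = diaphorase activity raised at least twofold by the compound at 20 µM; inactive = activation factor below 2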
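Material: Purified diaphorase enzyme from Clostridium kluyveri | Buffer or medium: 50 mM HEPES pH 7.4 with 4.542 mM MgCl2, 0.005% Tween 20 | Times: 16 min enzyme reaction, ambient temperature | Signal: Red resorufin fluorescence at 544/590 nm excitation/emission | Measure: Increased resorufin signal from activators or reducing compounds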
Diaph inh CS: inhibits diaphorase or chemically oxidizes, flagging diaphorase assay artifacts | diaphorase resazurin-to-resorufin fluorescence, NADH, 16 min; bacterial (C. kluyveri) enzyme, not human | inhibition, % at 20 µM | 190,000 tested, 0.69% active | AID 1217;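 active = primary screen inhibition at 20 µM above a set limit, cut at about 50% in these data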;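 note: plate controls were DMSO with full reaction for no effect and wells lacking NADH for full effect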
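System: Diaphorase enzyme from Clostridium kluyveri | Amount: Enzyme working solution with 0.14 U/mL diaphorase | Benchmarks: No-NADH positive control and DMSO neutral control | Signal: Fluorescence of resorufin formed from resazurin, Ex 544/Em 590 nm | Schedule: 16-min room-temperature incubation before reading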
APP 5'UTR act: activates APP 5'UTR luciferase reporter; SH-SY5Y APP 5'UTR luciferase reporter, luminescence; zero percent = DMSO vehicle wells; activation, % at 2 µM; 190,000 tested, 1% active; AID 1276;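 active = activation above a set limit, based on mean plus 3 SD of controls, cut at about 140% in these data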; note: values of inactives mirror those of a sister screen read the other way
FLuc act counter: firefly luciferase counter-screen for stimulation assays | P08659 | ATPlite luciferase biochemical, luminescence, 10 min; 0 = ATP-free wells, 1 = DMSO control | activation factor at 10 µM | 200,000 tested, under 10 active | AID 1027;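 active = luciferase activation factor, scaled between plate controls, of at least 2 with compound at 10 µM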
Target sequence (P08659 whole entry, looked up): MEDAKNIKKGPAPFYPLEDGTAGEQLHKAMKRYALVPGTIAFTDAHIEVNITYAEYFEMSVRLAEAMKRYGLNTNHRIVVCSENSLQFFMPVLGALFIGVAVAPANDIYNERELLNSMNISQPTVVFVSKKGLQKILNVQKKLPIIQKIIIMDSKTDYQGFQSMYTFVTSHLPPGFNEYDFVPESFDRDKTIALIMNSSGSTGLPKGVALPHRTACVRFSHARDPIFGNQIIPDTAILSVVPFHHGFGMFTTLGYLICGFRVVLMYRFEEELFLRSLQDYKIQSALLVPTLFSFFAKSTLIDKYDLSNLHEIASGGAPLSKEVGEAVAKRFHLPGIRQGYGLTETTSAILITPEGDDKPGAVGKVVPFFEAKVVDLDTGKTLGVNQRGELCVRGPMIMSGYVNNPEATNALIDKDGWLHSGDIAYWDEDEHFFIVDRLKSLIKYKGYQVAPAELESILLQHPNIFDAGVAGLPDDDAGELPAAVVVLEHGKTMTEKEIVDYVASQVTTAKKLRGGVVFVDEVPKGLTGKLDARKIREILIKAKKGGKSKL
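System: luciferase plus luciferin reagent, cell-free; medium: PBS as buffer for the ATP substrate; dosing: test compounds dosed from 2 mM stocks in 100% DMSO; timing: 10 min post-reagent at room temperature; measured by: luminescence measurement of luciferase light output; evaluation: luciferase activation, seen as luminescence increase over controls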
* = called active by the depositor. A portion of the library; the hit share may differ from the screen's.

A first look:
SMILES	TLR4-MyD88 BLA	G6PDH CS	Diaph act CS	Diaph inh CS	APP 5'UTR act	FLuc act counter
Nc1ccc(N=Nc2ccccc2)cc1	3	-3	0.9	7	63	0.7
C[C@]12CCC(=O)C=C1CC[C@@H]1[C@@H]2CC[C@]2(C)C(=O)CC[C@@H]12	0	8	1.1	-10	13	1
CC(C)Nc1nc(Cl)nc(NC(C)C)n1	17	14	1	3	13	1
Clc1ccc(CSC(Cn2ccnc2)c2ccc(Cl)cc2Cl)cc1 (centres undefined)	-7	8	0.9	9	-13	1.1

The list itself, from the first entry:
SMILES	TLR4-MyD88 BLA	G6PDH CS	Diaph act CS	Diaph inh CS	APP 5'UTR act	FLuc act counter
Nc1ccc(N=Nc2ccccc2)cc1	3	-3	0.9	7	63	0.7
C[C@]12CCC(=O)C=C1CC[C@@H]1[C@@H]2CC[C@]2(C)C(=O)CC[C@@H]12	0	8	1.1	-10	13	1
CC(C)Nc1nc(Cl)nc(NC(C)C)n1	17	14	1	3	13	1
Clc1ccc(CSC(Cn2ccnc2)c2ccc(Cl)cc2Cl)cc1 (centres undefined)	-7	8	0.9	9	-13	1.1
CC12CCC(=O)C=C1CCC1C2CCC2(C)C(O)CCC12 (centres undefined)	-13	3	0.9	8	3	1.1
N#CC1=C(N)Oc2cc(O)ccc2C1c1ccc2c(c1)OCO2 (centres undefined)	10	16	0.8	21	-3	1
Nc1ccc2c(c1)Cc1ccccc1-2	4	11	0.9	8	32	1
CN(C)c1ccc(-[n+]2c(-c3ccccc3)cc(-c3ccccc3)cc2-c2ccccc2)cc1	11	6	1.1	-14	-45	1.1

Structural class: the entries above with nitrogen in an aromatic ring.
SMILES	TLR4-MyD88 BLA	G6PDH CS	Diaph act CS	Diaph inh CS	APP 5'UTR act	FLuc act counter
CC(C)Nc1nc(Cl)nc(NC(C)C)n1	17	14	1	3	13	1
Clc1ccc(CSC(Cn2ccnc2)c2ccc(Cl)cc2Cl)cc1 (centres undefined)	-7	8	0.9	9	-13	1.1
CN(C)c1ccc(-[n+]2c(-c3ccccc3)cc(-c3ccccc3)cc2-c2ccccc2)cc1	11	6	1.1	-14	-45	1.1
